# Assay outcomes as filed in PubChem BioAssay.
# ATXN viability – cell viability loss in ATXN counter-screen | Potency, µM (highest dose often 56.7 µM), actives largely listed as cytotoxic | 0.49% of 400,000 active | S2 cells (HEK-293 line with an ATXN2-luciferase reporter) viability, CellTiter-Fluor protease fluorescence, 24 h; note: potency is the fitted concentration of half-maximal effect; nearly all actives have a fitted effect of over 40% in size
# HepG2 tox – counter-screen for TGF-b inhibitors: cytotoxicity in HepG2 cells; AID 588856; HepG2 CAGA-GFP viability, ATP luminescence, 18 h; Potency, µM (titrated, usually from 46.1 µM), for inactives: at the highest dose activity change, negative = cytotoxicity, hits mostly cytotoxic; 0.76% of 410,000 active; note: potency is the fitted concentration of half-maximal effect; some results filed as inactive show a strong effect at the top dose
#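 CellTiter-Glo luminescence gave cytotoxicity after 18 hours at 37 degrees C. The cells were HepG2 CAGA-GFP in 1% FBS DMEM, stimulated with 500 pg/mL TGF-beta after compound addition. %Activity was normalised to no-cell wells (complete cell-killing) and DMSO (no toxicity), and curves were fitted and classified.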
# Nrf2 inh – blocks Nrf2 signaling; A549 ARE-Fluc reporter, luciferase luminescence, 18-24 h; Potency, µM (series often up to 46 µM), for the others: at the highest dose activity change, negative = inhibition, usual class: inhibitors; 2.1% of 360,000 active; AID 504444; note: potency is the fitted concentration of half-maximal effect; % is set by controls: 0 for no effect and ±100 for the full control effect; nearly all actives have a fitted effect of over 60% in size
#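 Cells were seeded and rested 2 h, then exposed to compounds for 18-24 h. CellTiter-Fluor was read first as a viability measure. BugLite was added 15 min before the final luminescent read of ARE-luciferase activity in A549 cells.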
# Nrf2 activator – Nrf2 pathway activation; AREc32 ARE-luciferase reporter (MCF7-derived line), luminescence, 24 h; Potency, µM (doses to about 46.1 µM), for the others: at the top dose activation, most hits filed as activators; 0.31% of 410,000 active; AID 624171; note: potency is the fitted concentration of half-maximal effect; % of control where 0% means no effect; nearly all actives have a fitted effect of over 65% in size
#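 Cells of the AREc32 ARE-luciferase line are plated in OPTI-MEM containing 5% FBS and left overnight at 37 deg C. Compounds are pinned in, incubation continues 24 hr, and firefly luciferase signal is then measured.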
# TGFb SMAD3 inh – blocks TGF-b signaling. HepG2 CAGA-GFP TGF-b/SMAD3 reporter, GFP fluorescence, 18 h; TGF-beta stimulated, 500 pg/mL final. 1.2% of 410,000 active. Potency, µM (series often up to 46.1 µM), inactives show at the highest dose activity, negative = inhibition, usual class: inhibitors; note: potency is the fitted concentration of half-maximal effect; % is set by controls: 0 for no effect and ±100 for the full control effect; nearly all actives have a fitted effect of over 65% in size
#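 HEPG2 CAGA-GFP, 1000 cells/well; 2 h settle, 37 C; cpd via pin tool; TGF-b 500 pg/mL final; 18 h, 37 C; GFP imaging ex488/em500-530; %Activity normalised to -TGF-b and +DMSO controls; CRC fit, curve class.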
# ATXN2 expr inh – inhibitors of ATXN2 expression; 0.72% of 360,000 active; AID 1745845; Potency, µM (highest dose often 57 µM), for the others: top-dose activity change, negative = inhibition, actives largely listed as inhibitors; HEK-293 ATXN2-luciferase reporter, luminescence, 24 h; note: potency is the fitted concentration of half-maximal effect; % is set by controls: 0 for no effect and ±100 for the full control effect; nearly all actives have a fitted effect of over 55% in size
#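 ATXN2-luciferase reporter cells (luciferase flanked by upstream and downstream ATXN2 gene portions) were treated 24 h at 37 °C with compounds at up to 57 uM. SteadyGlo luminescence gave expression; GF-AFC fluorescence gave viability.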
# IL2 activator – IL-2 activation | IL-2 activation reporter assay, cell-based qHTS; stimulated with anti-CD3/CD4/CD28 beads; in transgenic mouse T cells | activation, % (series mostly up to about 46 µM) | 0.065% of 360,000 active | AID 652025; in the data active = activation above about 50%; inconclusive = mostly about 30% to 49%; note: 0% is about no effect
#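 EGFP and DsRed fluorescence is measured by plate cytometry in unstimulated transgenic mouse T cells exposed to compound for 60 minutes, then stimulated 18 hours at 37 degrees C with anti-CD3/anti-CD4 beads plus anti-CD28.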
# A549 viability – A549 cytotoxicity, counter-screen for Nrf2 inhibitors; Potency, µM (titrated, usually from 46 µM), inactives show top-dose activity change, negative = cytotoxicity, most hits filed as inhibitors; 0.16% of 390,000 active; A549 ARE-Fluc cells, CellTiter-Fluor viability, 18-24 h; note: potency is the fitted concentration of half-maximal effect; % is set by controls: 0 for no effect and ±100 for the full control effect
#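 A549 ARE-Fluc cells in 5% FBS OPTI-MEM, 5000 cells/well, rested 2 h then exposed to compounds in concentration-response for 18-24 h at 37 °C. Viability by CellTiter-Fluor fluorescence (Ex 405/Em 525) after 30 min; luciferase luminescence (BugLite, 15 min, RT) read afterwards.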
# An asterisk follows results filed as active; i = inactive; ? = inconclusive; . = no result given; [ ] = remark or other dose. Unless noted, calls come from the whole dose curve; as a rule, active = well fitted curve in the direction sought with a large enough effect; inconclusive = small, poorly fitted or top-dose-only effect, or another doubt; inactive = no such curve, though single readings can be large; an effect the other way counts as inactive or inconclusive. These rows are one share of the data (hit frequency here may not be typical).
SMILES,ATXN viability,HepG2 tox,Nrf2 inh,Nrf2 activator,TGFb SMAD3 inh,ATXN2 expr inh,IL2 activator,A549 viability
Cc1ccc2cccc(Oc3nnnn3-c3ccccc3)c2n1,i,-2%,3%,4.4%,-1%,-12%,-2.4,0%
CCNC(=O)C1(C)CCCCN1Cc1ccc(C#N)cc1 (stereo not drawn),i,-11%,.,-0.3%,15%,0%,-0.4,.
Cc1ccccc1C(=O)OCC(=O)NCC1COc2ccccc2O1 (stereo not drawn),i,-5%,1%,0.1%,-12%,7%,0.0,-2%
C=C(C)Cn1c(C2CC(=O)N(Cc3ccccc3)C2)nc2ccccc21 (stereo not drawn),i,-3%,11%,0.4%,?,-6%,-2.6,6%
CC1CCN(CCCNC(=O)CCCNC(=O)Cn2cnc3sc4c(c3c2=O)CCCC4)CC1,i,-4%,?,-0.9%,-1%,-7%,0.3,-15%
O=C(OC1CCOC1=O)c1cccc(S(=O)(=O)Nc2cccc(Cl)c2)c1 (stereo not drawn),i,-7%,-13%,-0.7%,18%,2%,-1.6,6%
CCCCN(C)C(=O)c1ccc(Nc2nc(C(N)CCc3ccccc3)cs2)nc1 (stereo not drawn),?,-89%,.,-4.1%,?,?,-0.9,.
COc1ccc(N(CN2C(=O)C3CCCCC3C2=O)C(=O)c2ccco2)cc1 (stereo not drawn),i,5%,3%,-0.6%,-4%,26%,-0.9,6%
CC1CCN(C2(O)C(=O)Nc3ccc(Cl)cc32)CC1 (stereo not drawn),i,8%,9%,0.0%,-6%,-10%,0.4,-10%
COc1cc(OC)c2c(c1)OC(=O)CC2c1ccc2c(c1)OCO2 (stereo not drawn),i,5%,7%,-0.2%,-8%,4%,-0.1,1%
N#Cc1ccc(/C=N/NC(=O)c2ccccc2F)cc1,i,0%,2%,4.7%,8%,6%,-0.4,-2%
Cc1cc(N/N=C\c2ccc(Br)cc2)nc(-n2nc(C)cc2C)n1,i,-43%,?,-1.2%,-17%,10µM*,-0.8,1%

# The closing four records of the section before come first, to join the parts:
SMILES,ATXN viability,HepG2 tox,Nrf2 inh,Nrf2 activator,TGFb SMAD3 inh,ATXN2 expr inh,IL2 activator,A549 viability
CC1CCN(C2(O)C(=O)Nc3ccc(Cl)cc32)CC1 (stereo not drawn),i,8%,9%,0.0%,-6%,-10%,0.4,-10%
COc1cc(OC)c2c(c1)OC(=O)CC2c1ccc2c(c1)OCO2 (stereo not drawn),i,5%,7%,-0.2%,-8%,4%,-0.1,1%
N#Cc1ccc(/C=N/NC(=O)c2ccccc2F)cc1,i,0%,2%,4.7%,8%,6%,-0.4,-2%
Cc1cc(N/N=C\c2ccc(Br)cc2)nc(-n2nc(C)cc2C)n1,i,-43%,?,-1.2%,-17%,10µM*,-0.8,1%
C=CCSc1n[nH]c(-c2cccs2)n1,i,-12%,2%,-1.0%,-3%,.,-2.5,5%
COc1ccc(-c2nnc(SCc3ccc(C(=O)O)cc3)n2C)cc1OC,i,2%,2%,-0.9%,7%,-28%,0.4,3%
COc1ccc(S(=O)(=O)N(CCCN2CCOCC2)Cc2cccc3ccccc23)cc1,i,-53%,22%,2.8%,54%[activator],-8%,0.5,-17%
COc1ccccc1NC(=O)C(C)OC(=O)/C(=C/c1ccccc1)NC(C)=O (stereo not drawn),i,-6%,14%,3.2%,2%,1%,1.1,3%
O=CC1=C(N2CCOCC2)/C(=C/c2ccc(Cl)cc2)CC1,i,-25%,8%,?,-22%,-33%,1.3,2%
O=C(Nc1ccc(S(=O)(=O)N2CCCC2)cc1)C1CCCCC1,i,-2%,-1%,0.1%,-2%,-7%,0.3,0%
c1ccc(-c2cnc(-c3cccnc3)o2)cc1,i,0%,?,?,17%,30%[activator],-2.1,-3%
Cn1ccc2c(-c3ccc(C(C)(C)C)cc3)cc3c(c21)C1CCC3O1 (stereo not drawn),i,-39%,.,5.7%,11µM*,52%[activator],-0.4,.
COc1cccc(Cn2cnc(-c3ccccc3OC)c2-c2ccco2)c1,i,.,.,7.7%,.,-13%,-0.2,.
O=c1c(NCCc2ccc(Cl)cc2)c(-c2ccccc2)c1=O,i,-5%,-9%,1.9%,-3%,-15%,2.4,5%
C[C@H](NS(=O)(=O)c1ccc(Cl)cc1)C(=O)OCC(=O)c1ccc[nH]1,i,-6%,0%,-2.3%,-4%,.,0.2,-2%
O=C(Nc1nnc(CCN2CCCCC2)s1)c1ccc(Br)cc1,i,-20%,9%,-0.4%,4%,12%,-3.0,0%

# Of the compounds above, these contain a cyano group.
SMILES,ATXN viability,HepG2 tox,Nrf2 inh,Nrf2 activator,TGFb SMAD3 inh,ATXN2 expr inh,IL2 activator,A549 viability
CCNC(=O)C1(C)CCCCN1Cc1ccc(C#N)cc1 (stereo not drawn),i,-11%,.,-0.3%,15%,0%,-0.4,.
N#Cc1ccc(/C=N/NC(=O)c2ccccc2F)cc1,i,0%,2%,4.7%,8%,6%,-0.4,-2%

# Additional entries:
SMILES,ATXN viability,HepG2 tox,Nrf2 inh,Nrf2 activator,TGFb SMAD3 inh,ATXN2 expr inh,IL2 activator,A549 viability
Nc1cc(=O)nc(SCC(=O)Nc2ccccc2Cl)n1-c1ccccc1,i,-1%,4%,-0.1%,-25%,-21%,-0.4,6%
Cc1cccc(C)c1Nc1nnc(SCC(=O)Nc2sccc2C#N)s1,i,-28%,-28%,-0.2%,-3%,.,3.8,-13%
COc1cccc2cc(C(=O)CS(=O)(=O)c3ccc(C(C)(C)C)cc3)c(=O)oc12,?,-54%,0%,0.4%,1%,.,-0.3,1%
CC1CCN(C2(O)C(=O)Nc3ccc(Br)cc32)CC1 (stereo not drawn),i,-2%,-5%,2.0%,-2%,1%[11.3 µM],-1.5,-16%
CC(OC(=O)CCOc1ccccc1)C(=O)NC1CC1 (stereo not drawn),?,0%,1%,-0.5%,0%,3%,0.0,4%
COc1ccc(N2C(=O)CSC2c2ccccc2F)c(OC)c1 (stereo not drawn),i,16%,-8%,-0.3%,5%,-6%,-1.4,-1%
COc1cc(OC)cc(C(=O)N[C@H](C(=O)OCC(=O)c2ccc3c(c2)NC(=O)CO3)C(C)C)c1,i,-9%,11%,1.7%,-14%,6%,-2.4,-22%
COC(=O)Cc1c(C)nc2nc[nH]n2c1=O,i,-14%,16%,0.3%,6%,0%,-2.9,-2%
CN1CCNC(=O)C1CC(=O)NCCc1ccccc1F (stereo not drawn),i,-7%,16%,1.8%,5%,5%,-0.2,4%
C/C(=N\NC(=O)c1ccc(NS(=O)(=O)c2cccs2)cc1)c1ccc(Cl)cc1,i,9%,2%,0.3%,1%,2%,1.4,-8%
Cc1nc(SCC(=O)N2CCNC2=O)c2ccccc2n1,i,7%,-9%,?,-3%,46%[activator],-0.6,-10%
Cc1cc(C)c2c(CC(=O)NNC(=O)c3ccccc3)coc2c1,i,4%,15%,-0.7%,0%,-5%,3.4,0%
O=C1OC(c2ccccc2)(c2ccc3cc(O)ccc3c2)c2ccccc21 (stereo not drawn),?,-182%,4%,-2.4%,?,?,-0.9,-6%
COc1cc(-c2nc3ccc(C)cn3c2NCc2ccccc2)ccc1-c1cccc(Cl)c1,i,-29%,-18%,3.3%,?,-13%,-0.8,-1%
CC1CCC2(CC1)NC(=O)N(Cc1nc(-c3ccccc3)no1)C2=O (stereo not drawn),?,-2%,?,-0.1%,-5%,-10%,-0.1,6%
O=C(Cn1cnc2sc3c(c2c1=O)CCCC3)NCC(=O)Nc1c(F)cccc1F,i,1%,9%,0.3%,-19%,22%,-1.4,-4%
C/C(CC(=O)NCc1ccc(Cl)cc1)=N\NC(=O)COc1ccc(C)cc1Br,i,-4%,?,0.0%,?,-12%,0.5,13%
CCCOc1ccc(Oc2nc(-c3ccncc3)nc3ccccc23)cc1,i,-21%,1%,-0.4%,-15%,-6%,-0.7,10%
N#CC(c1ccccn1)(c1ncc(C(F)(F)F)cc1Cl)N1CCOCC1 (stereo not drawn),i,-5%,1%,-0.2%,-23%,-8%,-2.2,-7%
Cn1c(-c2ccccc2)c(C#Cc2ccc(N)cc2)c2ccccc21,i,-14%,-3%,-0.7%,3.5µM*,-15%,0.1,-3%
CCCCc1c(C)nc2ccccc2c1SCCC#N,i,-14%,24%,18%,-26%,7%,-2.0,-2%
CCC(=O)N1N=C(c2cccs2)CC1c1ccc(C)cc1 (stereo not drawn),i,-15%,-9%,3.9%,-21%,.,0.7,-1%
Fc1ccc(CNCCC(Cc2ccccc2)c2ccco2)cc1 (stereo not drawn),i,-63%,18%,8.8%,?,-39%,-2.7,10%
CCOC(=O)c1c(CC(C)C)csc1NC(=O)C(C)C,i,-38%,12%,0.6%,-13%,-9%,-0.6,1%
C[C@@H](NC(=O)c1nc[nH]c1C(=O)NC1CCN(C(=O)OC(C)(C)C)CC1)c1ccccc1,i,-34%,-4%,4.6%,?,-12%,0.2,0%
CC(C)(C)NC(=O)CN(C(=O)CCN1CCCc2ccccc21)C(C)(C)C,i,-2%,1%,0.1%,-1%,1%,-2.6,-4%
COCCNC(=O)c1noc2c1CCc1cc(OC)ccc1-2,i,-9%,?,-0.3%,32%[activator],6%,-1.2,-3%
Cn1ccc2c(-c3ccc(C(F)(F)F)cc3)cc3c(c21)C1CCC3O1 (stereo not drawn),i,-26%,.,5.0%,?,0%,-0.3,.
O=S(=O)(Cc1c(F)cccc1Cl)c1ncn[nH]1,i,0%,11%,0.0%,1%,-3%,-2.8,2%
COc1ccccc1CNC(=O)COC(=O)Cc1cccs1,i,-5%,-1%,-0.6%,12%,-22%,-0.4,-3%
